# Screens (PubChem)
# VACV mCherry inh: qHTS for Stage-Specific Inhibitors of Vaccinia Orthopoxvirus: mCherry Reporter Primary qHTS; Vaccinia virus mCherry reporter infection, fluorescence; about a quarter of the inactives have no number; Potency, µM (titrated, usually from 36.5 µM), for inactives: at the highest dose activity change, negative = inhibition, most hits filed as inhibitors; 0.63% of 310,000 active; active = well fitted inhibition curve with a large enough effect; inconclusive = small, poorly fitted or top-dose-only effect; inactive = no such curve, though single readings can be large or run the other way; tested in A549 cells; note: nearly all actives have a fitted effect of over 35% in size; inactives centre near -10
# Vaccinia Venus: qHTS for Stage-Specific Inhibitors of Vaccinia Orthopoxvirus: Venus Reporter Primary qHTS; Vaccinia virus Venus reporter expression, fluorescence; Potency, µM (series often up to 36.5 µM), without a hit: at the highest dose activity change, negative = inhibition, actives largely listed as inhibitors; 0.46% of 330,000 active; AID 720580, 2013; active means well fitted inhibition curve with a large enough effect; inconclusive means small, poorly fitted or top-dose-only effect; inactive means no such curve, though single readings can be large or run the other way; tested in A549 cells; note: nearly all actives have a fitted effect of over 30% in size; inactives centre near -10
# * hit, by the source's call; i = inactive; ? = inconclusive; · = not tested or not shown; & = joins results of further samples; [ ] = another dose, or the depositor's remark. % is set by controls: 0 for no effect and ±100 for the full control effect; potency is the fitted concentration of half-maximal effect.
canonical_smiles	VACV mCherry inh	Vaccinia Venus
COc1cccc(-c2cnc(C(O)c3cccc(F)c3)[nH]2)c1 (configuration not stated)	i	-1.8%
CN(C)c1cccc(C(=O)Nc2ccc(S(=O)(=O)Nc3nccs3)cc2)c1	-1.2%	-9.8%
COc1ccc(-c2cc3nc(C)c(CCC(=O)Nc4ccc(F)cc4F)c(C)n3n2)c(OC)c1	-0.5%	-3.5%
CCCC(=O)N(Cc1cc(=O)[nH]c2ccccc12)c1cccc(C)c1	i	-11.4%
CCOC(=O)C1CCCN(C(=O)c2oc3ccccc3c2C)CC1 (configuration not stated)	i	0.7%
CC(=C/c1ccccc1)/C=N/NC(=O)c1ccccn1	-9.7%	-10.6%
O=C(COc1ccc(Br)cc1Cl)Nn1cnnc1	-8.2%	-1.3%
CCN(CC)C(=O)Cn1cc(S(=O)(=O)CC(=O)N2CCOCC2)c2ccccc21	-12.8%	-3.3%
O=C1CC(c2ccccc2)Cc2nc(NCc3ccco3)ncc21 (configuration not stated)	-15.0%	-28.1%
C[C@H]1OC[C@@H](C[N+](C)(C)C)O1	-2.4%	-15.3%
CCCCCCCCCCCCC(=O)CCCCC(=O)O	i	-7.7%
CN(C(=O)Cn1cnc2ccccc2c1=O)C1CCS(=O)(=O)C1 (configuration not stated)	i	-17.6%
O=C(NCCCN1CCOCC1)[C@@H]1CSC2c3ccccc3C(=O)N21 (some centres not stated)	i	-9.9%
O=C1CC(c2ccco2)CC2=C1C1c3ccccc3C(=O)N1c1ccccc1N2 (configuration not stated)	·	?
Cc1cc(C)n(C(=O)/C=C/c2cccs2)n1	-4.5%	2.1%
CC(NC(=O)COC(=O)C1CCN(c2ccc(C(F)(F)F)cn2)CC1)c1ccccc1 (configuration not stated)	-13.7%	-12.7%
COc1cccc(CN(C(=O)c2ccccc2)C2CCS(=O)(=O)C2)c1 (configuration not stated)	i	-13.1%
CCCCN(CC)Cc1ccc(CNC(=O)Nc2ccc(Cl)cc2)o1	i	-10.3%
O=C(CCCCCN1C(=O)c2ccccc2C1=O)Nc1ccccc1	-8.0%	-7.1%
N#CCOC(=O)C1c2ccccc2Oc2ccccc21	-13.4%	-10.0%
Cn1cc(CN2CCC(O)CC2)c(-c2ccc(Oc3ccccc3)cc2)n1	i	-11.7%
CCc1cccc(NC(=O)Cn2ccn3nc(-c4ccc(OC)c(OC)c4)cc3c2=O)c1	0.5%	4.0%
CCNC(=O)C1(C)CCN(Cc2ccc(OC(F)(F)F)cc2)C1 (configuration not stated)	i	1.4%
COc1ccc(CCNCc2c(C(=O)O)c(C)n(Cc3ccccc3C)c2C)c(OC)c1	-2.5%	8.2%
COc1cccc(NC(=O)NNC(=O)c2ccc3c(c2)NC(=O)C(C)(C)O3)c1	-15.3%	-16.5%
NC(=S)Nc1nccc(-c2cccs2)n1	i	-10.0%
Cc1ccc(/C=N/NC(=O)Nc2ccccc2)o1	-18.3%	-11.0%
NS(=O)(=O)c1ccc(CCNC(=O)CNC(=O)c2ccccc2F)cc1	-6.6%	-10.1%
CCNC(=S)NNC(=O)c1ccc(OC)cc1	-13.3%	-14.0%
CCc1cccc(C)c1NS(=O)(=O)c1cc2[nH]c(=O)c(=O)[nH]c2cc1C	0.2%	1.7%
Cc1c(NC(=O)CN2C(=O)NC3(CCCCC3)C2=O)c(=O)n(-c2ccccc2)n1C	i	-0.7%
O=[N+]([O-])c1ccc2c(c1)C(O)n1ncnc1S2 (configuration not stated)	-0.7%	4.1%
CCN(CC)C(=O)[C@H]1C[C@H](CC(=O)NC(C)(C)C)C(=O)N2CCc3c([nH]c4ccc(Cl)cc34)[C@]12C	i	?
CCNC(=O)Cn1c(=O)c(=O)n(Cc2ccccc2)c2ccc(Cl)cc21	i	-6.6%
COc1cc2c(c(OC)c1CC=C(C)C)C[C@H](c1ccc(O)cc1O)CO2	-29.8%	-27.1%
CN1CCN(C(=O)c2cc(Br)cn2C)CC1	-12.3%	-7.1%
C=CCn1c(Oc2ccc(C(=O)OC)cc2)nc2c1c(=O)n(C)c(=O)n2C	·	-1.8%
CCNC(=O)CC1C(=O)N(c2ccc(F)cc2)C(=O)N1CCOC (configuration not stated)	2.4%	12.0%
O=C(C1=C[C@@H](c2ccc3c(c2)OCO3)C[C@@H](OCCCCO)O1)N1CCN(Cc2ccc3c(c2)OCO3)CC1	i	-14.4%
CCOC(=O)CC[C@H](NC(=O)Cn1cc(C)c(=O)[nH]c1=O)C(=O)OCC	-19.3%	1.3%
O=c1oc(/C=C/c2ccco2)nc2sc3c(c12)CCC3	-5.0%	0.5%
COc1ccc(CCNC(=O)C2CCN(S(=O)(=O)c3c(C)noc3/C=C/c3ccc(C)cc3)CC2)cc1OC	-8.3%	-10.0%
COc1cccc(CN2C(=O)NC(C)(C3CCN(Cc4cc(Cl)ccc4O)CC3)C2=O)c1OC (configuration not stated)	-10.3%	-23.8%
C=CCn1c(SCC(=O)Nc2nc3ccccc3s2)nc(O)c(CC)c1=O	-10.1%	-4.3%
O=C(NNC(=O)c1cc(C(F)(F)F)cc(C(F)(F)F)c1)c1ccc(Cl)cc1	i	-5.2%
CCN1CCN(C(c2cccs2)C(C)NC(=O)c2ccccc2)CC1 (configuration not stated)	-13.6%	2.8%
Cc1ccc(OCc2ccc(C(=O)Nc3nccs3)o2)cc1C	?	-0.2%
COCCn1ccc2c(OCC(=O)Nc3c(C)cc(C)cc3C)cccc2c1=O	i	-7.7%
CCCCNC(=O)c1cc(-c2ccc(Cl)c(Cl)c2)on1	-3.5%	9.7%
CCOc1ccc(OCC)c(NC(=O)C2C3C=CC(O3)C2C(=O)O)c1 (configuration not stated)	i	-10.1%
Cc1csc2ncc(C(=O)N3c4ccccc4CC3C)c(=O)n12 (configuration not stated)	22.0%	-3.5%
CCOC(=O)COc1ccccc1C1C(C(=O)OC)=C(C)NC2=C1C(=O)c1ccccc12 (configuration not stated)	-13.6%	-14.5%
CCc1nc(CN2CCOc3ccc(C(O)C4CCCCC4)cc3C2)c(C)[nH]1 (configuration not stated)	-25.1%	-23.6%
COC(=O)C1=C(C)N(Cc2ccccc2)C(=NCc2cccc(C(F)(F)F)c2)N[C@H]1c1cccc(C(F)(F)F)c1	10µM*	28.2µM*
CC(/C=C/c1ccccc1F)=N\NC(=O)c1cccc(F)c1	?	-24.9%
COCCCNC(=S)N/N=C/c1ccc(OC)c(Br)c1	i[7.34 µM]	-4.3%[7.34 µM]
COc1ccc(Cc2nc(N)nc(N)n2)cc1	-11.1%[1.46 µM]	-19.7%
CC(C)CC1NC(=S)N(C2CCCCC2)C1=O (configuration not stated)	-21.5%	-11.2%
C#CCOCCOCCOCCNc1nc(N2CCN(C(=O)[C@H]([C@@H](C)CC)n3cc([C@@H](N)CO)nn3)CC2)nc(N2CCN(C(=O)[C@H](CCCCN)n3cc([C@@H](N)CC(C)C)nn3)CC2)n1	i	-11.5%
COc1cccc(C(=O)Nc2ccc3nc(SCCOc4ccccc4)sc3c2)c1	-8.3%	-8.8%

# Reformatted as labelled records: part of the list above
CC(C)CC1NC(=S)N(C2CCCCC2)C1=O (configuration not stated)
- VACV mCherry inh: -21.5%
- Vaccinia Venus: -11.2%

COc1cc2c(c(OC)c1CC=C(C)C)C[C@H](c1ccc(O)cc1O)CO2
- VACV mCherry inh: -29.8%
- Vaccinia Venus: -27.1%

C=CCn1c(Oc2ccc(C(=O)OC)cc2)nc2c1c(=O)n(C)c(=O)n2C
- VACV mCherry inh: ·
- Vaccinia Venus: -1.8%

# (further entries)
canonical_smiles	VACV mCherry inh	Vaccinia Venus
Cc1noc(C)c1S(=O)(=O)Nc1ccc(C(=O)Nc2ccc(Br)cc2)cc1	-16.1%	-9.9%
CC1(C)CC(=O)C=C(/C=C/c2ccccc2)C1	i	-11.1%
Nc1nc2c(nc(Sc3ccc(Cl)cc3)n2C2OC(CO)C(O)C2O)c(=O)[nH]1 (configuration not stated)	-7.3%	3.8%
CC(C)(C)c1nnc2sc(SCCN3C(=O)c4ccccc4C3=O)nn2c1=O	-17.2%	-5.8%
COc1cc(C(=O)N[C@@H](C)C(=O)N2CCC3(CC2)NCCc2[nH]cnc23)cc(OC)c1OC	i	4.7%
CCCCOc1ccc(S(=O)(=O)Nc2ccc(-c3ccc(N4CCCCCC4)nn3)cc2)cc1	-21.7%	-14.2%
Cc1cccn2c(/C=N/OCc3cccc(F)c3)c(-c3ccc(Cl)cc3)nc12	·	-2.7%
COc1ccc(/C=N/NC(=O)CC(=O)NCc2cccnc2)c(OC)c1	-13.6%	0.6%
COc1cc(OC)cc(C(=O)NCC2CCCN(C(=O)c3oc(C)cc3C)C2)c1 (configuration not stated)	-20.4%	-13.1%
CCCSc1nc(=O)c2c(n1C)NC(=O)CC2c1cccc(F)c1F (configuration not stated)	0.7%	-5.9%
O=C(NCc1ccccc1)N(Cc1nc2ccccc2c(=O)[nH]1)C1CCCC1	-3.5%	-15.3%
Cc1occc1-c1nnc(SCC(=O)NCCc2ccccc2)n1C(C)c1ccccc1 (configuration not stated)	-9.7%	-26.6%
Cc1ccc(C(=O)NNC(=O)OC(C)(C)C)c(Cl)c1	·	-4.3%
NC(COCc1ccccc1)c1csc(NC(=O)Nc2cccc(Cl)c2)n1 (configuration not stated)	9.4%	-18.9%
CC(C)NC(=O)Nc1ccc2c(c1)N(C)C(=O)c1ccccc1S2	-28.7%	-16.6%
CC(C)(O)C#Cc1ccc(C(=O)N2CCN(C(=O)c3ccco3)CC2)cc1	i	-21.9%
CC[C@]12c3[nH]c4ccc(OC)cc4c3CCN1C(=O)C(CC(=O)NCC13CC4CC(CC(C4)C1)C3)C[C@@H]2C(=O)N1CCN(C(=O)C2CC2)CC1 (some centres not stated)	i	-21.3%
O=C(NCc1ccco1)c1ccccc1-c1nc(-c2ccc(F)cc2)no1	i	-7.9%
COc1ccc(CCN2CC(C(=O)N3CCN(C(C)=O)CC3)CCC2=O)cc1 (configuration not stated)	-10.1%	6.1%
Cc1cc(NC(=O)CCC2COc3ccccc3O2)no1 (configuration not stated)	-18.9%	-7.8%
Nc1c(C(=O)Nc2ccc(F)cc2)sc2nc(-c3cccs3)cc(C(F)(F)F)c12	7.8%[7.34 µM]	6.0%[7.34 µM]
Cc1ccc(S(=O)(=O)NCC(=O)NCCc2c[nH]c3ccccc23)cc1C	-9.6%	-22.5%
CCOC(=O)C1=CN(Cc2cccc(-c3cccnc3)c2)S(=O)(=O)N(C)C1C (configuration not stated)	-2.5%	-28.7%
COc1ccccc1NC(=O)c1c(C)cc(C)nc1SCC(=O)Nc1ccc(C)cc1	-13.2%	-18.1%
CN1CCN(c2ccc(/C=C3\C(=O)NC(=S)N(c4cccc(Br)c4)C3=O)o2)CC1	-10.1%	130.3%[activator]
CCN(CC)S(=O)(=O)c1ccc(N2CCCC2)c(NS(=O)(=O)c2ccc(OC)cc2)c1	i	-11.9%
COc1ccc(C(=O)N2CCCCCC2)cc1S(=O)(=O)N1CCOCC1	-8.1%	-5.1%
Cc1ccc(OCC(=O)N2CCN(C(=O)c3ccco3)CC2)cc1	i	-1.4%
CCc1ccc(C(=O)c2cn(CC(=O)Nc3ccc4c(c3)OCCO4)c3ccc(CC)cc3c2=O)cc1	-4.1%	-4.2%
Cc1ccc(S[C@@H](CCN2CC[C@H](NC(=O)OCc3ccccc3)CCC2=O)c2ccccc2)cc1	-14.2%&-4.2%	-26.9%&-20.5%
CC1(C(=O)NS(=O)(=O)c2cccc(Cl)c2)CCN1C(=O)C1CCCCC1 (configuration not stated)	-10.3%	6.4%
Cc1ccccc1OCC(=O)Nc1sc(C(=O)Nc2cccc(C)c2C)c(C)c1C#N	i	-3.7%
COc1ccc(-n2ncc3c(NC4CCCC4)ncnc32)cc1	-0.8%	-14.1%
CN1CCN(S(=O)(=O)c2ccc3c(c2)NC(=O)C2CCCN32)CC1 (configuration not stated)	-11.5%	-2.7%
CC(CO)NCC12CC3CC(CC(C3)C1)C2 (configuration not stated)	-21.8%	-9.1%
COC(=O)C(O)(CC(=O)Nc1cccc(SC)c1)C(F)(F)F (configuration not stated)	i	-5.9%
CCS(=O)(=O)N1CCCC(C(=O)N2CCc3ccccc3C2)C1 (configuration not stated)	i	-8.8%
COc1cc(C(O)c2nc(/C=C/c3ccccc3)cs2)ccc1F (configuration not stated)	16.7%	3.7%
Cc1sc2nc(CSc3n[nH]c(N)n3)[nH]c(=O)c2c1C	-12.2%	-2.4%
NCCCC[C@@H](C(=O)NCCCCCCCCCCC(=O)N1CCNCC1)n1cc(CCO)nn1	i	-12.8%
Cc1cc(C(=O)OCC(=O)N2CC(=O)Nc3ccccc32)c(C)n1-c1ccc(F)cc1	-0.3%	-21.7%
Fc1ccccc1CNC1CN2CCC1CC2 (configuration not stated)	-9.8%	-3.4%
Cc1nn(-c2ccccc2)c(Cl)c1C(=O)N1CCN(C)CC1	-9.3%	-11.4%
CCNc1nnc(SCC(=O)N2c3ccccc3NC(=O)CC2C)s1 (configuration not stated)	-9.8%	-11.1%
CCn1c(C)cc(/C=C2/NC(=O)N(Cc3ccccc3F)C2=O)c1C	-19.3%	-10.6%
